ugtP null kill: kills S. aureus RN4220 lacking UgtP. 0.54% of 330,000 active. S. aureus RN4220 ugtP deletion, OD600 growth, 16 h; some inactives read as strong as hits. growth inhibition, % (test concentration not listed). AID 1259309;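 active means z-score under -3 and OD600 up to 0.15 on both plates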;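 further: plate controls were untreated wells for no effect and antibiotic for full effect; wells of about 80 µL received 100 nL stock; the first replicate is given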
Mtb hypoxia inh: Mtb hypoxia fluorescent reporter inhibition. M. tuberculosis hypoxia-regulated fluorescent reporter, fluorescence. fluorescence inhibition, % (no concentration beside the values). 0.1% of 300,000 active. AID 1159583;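 active means 35 to 45% if threefold the growth effect, above 45% if 1.5-fold the growth effect; inactive means the rest, general growth blockers included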;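 further: wells of about 50 µL received 100 nL stock; 0% = vehicle wells and 100% = reference inhibitor wells; whole bacteria with a GFP reporter of the hypoxia response; strong numbers were not always called active; many hits fall short of the cut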
Sa RN4220 lethal: kills Staphylococcus aureus RN4220; S. aureus RN4220 growth, OD600, 16 h; inhibition, % (no concentration beside the values); 0.33% of 330,000 active;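 active means z-score of -3 or lower and OD600 up to 0.18 on both plates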;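 further: plate controls were untreated cells for no effect and reference antibiotic for full effect; stock transfer was 100 nL into about 80 µL; one replicate is shown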
Bead autofluor: compound fluorescence in toxin protease inhibitor counterscreen; compound autofluorescence counterscreen, microsphere flow cytometry; hits give high values; fluorescence intensity (no concentration beside the values); 3.1% of 360,000 active; AID 624483;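 active means at least 3 SD above the mean of all compounds, about 16000 in these data; inconclusive means too few beads counted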;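 further: 100 nL of 1 mM stock went into each well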
PrP UTR inh: suppresses PrP 5' UTR mRNA reporter expression. cell-based PrP 5' UTR mRNA reporter, plate reader. inhibition, % (concentration not given with the values). 0.35% of 340,000 active;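 active means every replicate at 50% or more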;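 further: 0 = median of the neutral control wells; tested in H4 reporter cells; numbers are from one replicate; inactives centre near -14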
BJeLR viability: BJeLR cell viability loss; inhibition, % (concentration not given with the values); BJeLR (HRASV12) viability, CellTiter-Glo ATP luminescence, 48 h; reference of the scale not given here; AID 1554; 0.17% of 300,000 active;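 active means replicate mean above 50%; inconclusive means above 50% but judged a plate artefact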;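 further: 50 nL library stock added to about 25 µL; numbers are from one replicate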
Mtb hypoxia inh growth: further read-out of Mtb hypoxia inh, marked with its call; growth inhibition, %; measured here: M. tuberculosis growth (absorbance);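 0% = vehicle and 100% = reference antibiotic; read after six days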
The depositor's hits bear a star; ? = inconclusive; nt = no result given.

SMILES	ugtP null kill	Mtb hypoxia inh	Mtb hypoxia inh growth	Sa RN4220 lethal	Bead autofluor	PrP UTR inh	BJeLR viability
COc1cc(NC(=O)C2C3C=CC(C3)C2C(=O)O)ccc1NC(=O)c1ccccc1 (configuration not stated)	-4	-2	-1	-3.7	?	-13	-1
Cc1ccc(C(=O)N2C3C=CC(C3)C2(C(F)(F)F)C(F)(F)F)cc1 (configuration not stated)	-4	2	15	6.3	2993	86*	-2
O=S(=O)(Nc1ccc(F)cc1Cl)c1ccc(-c2cnc(C3CC3)o2)cc1	-3	5	5	42	5132	0	33
O=C(Nc1ccsc1C(=O)O)c1ccccc1	-1	10	2	2.5	3038	-6	11
Cc1cc(C=NNC(=O)c2cccc([N+](=O)[O-])c2)c(C)n1-c1ccc(Cl)cc1Cl	22	12	8	17	nt	nt	nt
N#Cc1c2n(c(=S)n(-c3ccccc3)c1=O)CCCCC2	1	15	2	4.1	2447	-1	-2
CCCNc1ncnc2c1cnn2C1CCCCO1 (configuration not stated)	-1	7	2	1.8	3785	-37	nt
O=C(COc1ncnc2cc(Cl)ccc12)c1ccc2c(c1)OCCO2	0	-9	4	3.0	4390	-92	-4
COC(=O)c1cn(Cc2c(C)cc(C)cc2C)nn1	0	-4	-2	1.8	1991	-21	-17
COc1ccc2o/c(=N\O)c(C(=O)Nc3ccc(C)cc3)cc2c1	nt	nt	nt	nt	5854	-33	4
Cc1cc(C)nc(SCC(=O)Nc2ccc(S(=O)(=O)Nc3cc(C)on3)cc2)n1	6	6	4	9.7	5924	-8	1
CCOc1ccc(CCNC(=O)COC(=O)c2cc(OC)c(OC)cc2[N+](=O)[O-])cc1OCC	-5	-2	-1	1.8	?	-17	12
O=C(CCN1C(=O)c2ccccc2S1(=O)=O)N1CCN(c2ccccc2)CC1	-5	nt	nt	-0.4	2765	-21	2
COc1ccc(-c2csc(C)n2)cc1	1	2	4	23	8707	-38	-12
CC1=C(C(=O)OC(C)C)C(c2c(O)ccc3ccccc23)NC(=O)N1 (configuration not stated)	10	11	3	2.1	5643	-6	10
COc1ccc(C(=O)NCc2cn3c(C)csc3n2)cc1OC	2	10	5	0.3	6765	-25	-3
COc1cccc(-c2nnc(SCN3C(=O)c4ccccc4C3=O)n2C)c1	5	-2	1	7.4	2071	-12	-2
COc1ccc(NC(=O)c2nn(C)c(=O)c3ccccc23)cc1S(=O)(=O)Nc1ccccc1Cl	nt	nt	nt	nt	3912	2	2
CCOC(=O)N1CCC(NC(=O)c2ccc3c(c2)sc2nc(-c4ccc(OC)cc4)cn23)CC1	-4	-4	6	-12	nt	nt	-5
O=C(O)C1C2C=CC(C2)C1C(=O)Nc1ccc(C(=O)N2CCCCC2)c(Cl)c1 (configuration not stated)	1	5	3	-3.2	3644	-16	-16
OC(Cc1cccnc1)c1ccccc1 (configuration not stated)	11	20	10	5.5	4179	-6	nt
Cc1ccc(NC(=O)N2CCC(C(=O)NCc3ccccc3)CC2)cc1	0	0	10	-1.3	4364	-7	-1
CN(C)c1ncc(CN2CCC(CO)(CCCc3ccccc3)CC2)s1	3	4	2	2.5	3516	-13	0
O=[N+]([O-])/C(Cl)=C1\NCCN1Cc1ccc(Cl)nc1	4	-7	-13	8.4	5978	-13	4
Cn1c(=O)oc2cc(S(=O)(=O)NCc3ccc(F)cc3)ccc21	7	5	3	3.8	5671	-21	1
CC(=O)c1cccc(N(C(=O)CNC(=O)c2cccs2)C(C(=O)NCC2CCCO2)c2ccccc2)c1 (configuration not stated)	3	-5	-8	2.6	5423	-6	-2
COC(=O)c1c(C(=O)OC)c(-c2ccc(Cl)cc2)n2c1CS(=O)(=O)C2	-8	-2	-13	-1.9	3514	-15	1
CC(C)[C@H](NC(=O)C1CCN(S(=O)(=O)c2ccccc2)CC1)C(=O)NCc1ccccn1	7	7	5	2.7	4844	-6	10
O=C(CCN1CCCC1)Nc1ccccc1	-3	2	12	3.2	4001	-55	-1
C=CCn1c(=O)c2ccccc2n2c(SCC(=O)NCc3cccs3)nnc12	5	-4	8	20	3317	-2	-9
Cc1cc(C(=O)NCC23CC4CC(CC(C4)C2)C3)c(C)o1	-11	17	19	-4.5	nt	nt	-1
CC1(C)CC[C@@]23CC[C@]4(C)[C@@](OC2=O)(C3C1)[C@H]1O[C@H]1C1[C@@]2(C)CC[C@H](O)C(C)(C)C2CC[C@]14C (some centres not stated)	0	nt	nt	28	nt	nt	4
Cc1cc(C)cc(NC(=S)N2CCC(NC(=O)c3ccco3)CC2)c1	2	-7	-2	-1.4	3755	-18	-1
NC(=O)C1CCN(C(=O)c2ccc(Cl)c(S(=O)(=O)NCc3ccco3)c2)CC1	11	1	-5	7.1	6406	-1	nt
CCC(c1nnc(SC(C)C(=O)NC2CC2)n1-c1ccc(OC)cc1)N(C)C (configuration not stated)	5	13	7	-1.3	8483	-26	nt
O=C(COc1cccc2ccccc12)NNC(=O)Nc1ccccc1	-7	10	9	0.3	5904	-32	-5
Cc1c(CCC(=O)O)c(=O)oc2c(C)c3occ(-c4ccc(Br)cc4)c3cc12	6	19	7	50	3854	-16	-3
CCCCC(=O)NCCNc1nc2c(c(=O)n(C)c(=O)n2C)n1Cc1ccc(F)cc1	-5	-9	-2	-0.4	3809	-1	9
Cc1cc(NC(=O)CSc2ccccn2)cc(NC(=O)CSc2ccccn2)c1	4	-4	-2	5.1	5537	-5	-5
Cc1cccc(C)c1NC(=O)CNC(=O)CN1C(=O)NC2(CCc3ccccc32)C1=O (configuration not stated)	5	15	11	4.8	3238	-3	nt
COc1ccccc1-c1cn(C(C)(C)C)nc1C	3	2	4	1.6	2015	-10	-3
CC(C)(C)c1ccc(OCC(=O)NNC(=O)Cc2cccs2)cc1	-4	nt	nt	-0.2	2709	-9	2
CCc1c(C(=O)NNC(=S)NCC2CCCO2)csc1C (configuration not stated)	-4	-5	1	-2.0	2470	-13	-7
COC(=O)c1ccc(OCC(=O)c2ccc(C)c(C)c2)cc1	5	4	-9	2.0	2595	-5	-4
CCOC(=O)c1oc2ccccc2c1NC(=O)c1cc(OC)cc(OC)c1	1	3	3	2.4	11172	-2	2

Overlap with the part before: five entries, followed by the next part.
SMILES	ugtP null kill	Mtb hypoxia inh	Mtb hypoxia inh growth	Sa RN4220 lethal	Bead autofluor	PrP UTR inh	BJeLR viability
COc1ccccc1-c1cn(C(C)(C)C)nc1C	3	2	4	1.6	2015	-10	-3
CC(C)(C)c1ccc(OCC(=O)NNC(=O)Cc2cccs2)cc1	-4	nt	nt	-0.2	2709	-9	2
CCc1c(C(=O)NNC(=S)NCC2CCCO2)csc1C (configuration not stated)	-4	-5	1	-2.0	2470	-13	-7
COC(=O)c1ccc(OCC(=O)c2ccc(C)c(C)c2)cc1	5	4	-9	2.0	2595	-5	-4
CCOC(=O)c1oc2ccccc2c1NC(=O)c1cc(OC)cc(OC)c1	1	3	3	2.4	11172	-2	2
CCCCNc1c(NC(C)=O)c(=O)oc2ccccc12	4	4	2	-0.6	2668	-22	5
Cn1nnnc1Sc1ncnc2scc(-c3ccc(C(F)(F)F)cc3)c12	10	5	1	19	4122	-18	nt
CCCC=NNC(=O)c1ccc(F)cc1	4	4	2	4.6	nt	nt	nt
Oc1ccc(-c2cn3ccccc3n2)cc1	1	10	5	3.7	6173	-93	-4
CCOC(=O)C1CCCN(C(=O)c2cc3ccccc3oc2=O)C1 (configuration not stated)	4	16	14	3.1	6290	-20	-9
Cc1ccccc1C(=O)Nc1cc(-c2cc(C(C)(C)C)oc2C)nn1C	4	6	1	0.0	4191	-15	1
Cc1nn(Cc2c(F)c(F)c(F)c(F)c2F)c(C)c1NC(=O)c1ccc(COc2ccccc2Cl)cc1	nt	nt	nt	nt	8005	-3	-13
Cc1ccccc1CS(=O)(=O)Cc1ccc(C(=O)NCCc2ccccc2)o1	9	1	1	3.8	5626	-5	4
Cc1ccc(NC(=O)NC(=O)CN2CCN(c3ccc(O)cc3)CC2)c(C)c1	-2	2	0	0.3	5211	-18	1
N#CC1=C(N)NC(SCC(=O)O)=C(C#N)C12CCCC2	-6	nt	nt	-0.6	4841	-12	-1
CC1(C)[C@@H](O)CC[C@]2(C)[C@H]3C(=O)C=C4[C@@H]5C[C@@](C)(C(=O)O)CC[C@]5(C)CC[C@@]4(C)[C@]3(C)CC[C@@H]12	nt	nt	nt	nt	6401	9	-1
O=C(Nc1ccc(-c2csc(-c3ccccc3)n2)cc1)c1ccccc1	-13	-6	3	-5.2	6476	-24	4
c1ccc(Cn2nnc3ccccc32)cc1	15	10	8	4.3	3696	-24	-3
COc1ccc(-c2nc(NC(=O)c3cc(C(C)(C)C)nn3C)sc2C)cc1	19	0	4	30	12131	nt	1
O=C(CNC(=O)c1ccc(S(=O)(=O)N2CCCCC2)cc1)N/N=C/c1ccco1	nt	nt	nt	nt	4734	-20	13

The list goes on; the last two above are carried over.
SMILES	ugtP null kill	Mtb hypoxia inh	Mtb hypoxia inh growth	Sa RN4220 lethal	Bead autofluor	PrP UTR inh	BJeLR viability
COc1ccc(-c2nc(NC(=O)c3cc(C(C)(C)C)nn3C)sc2C)cc1	19	0	4	30	12131	nt	1
O=C(CNC(=O)c1ccc(S(=O)(=O)N2CCCCC2)cc1)N/N=C/c1ccco1	nt	nt	nt	nt	4734	-20	13
O=[N+]([O-])c1ccc(C=NNC(=S)NN=Cc2ccc([N+](=O)[O-])cc2)cc1	-22	5	13	7.3	3563	-7	nt
CC(=O)CSc1ncnc2scc(-c3ccc(F)cc3)c12	7	14	2	3.0	2535	-18	-3
C=CCOC(=O)CC(NC(=O)c1ccccc1)c1ccccc1 (configuration not stated)	-12	-1	9	6.4	5494	-20	2
Cc1noc(C)c1C(=O)NC1CCCc2ccccc21 (configuration not stated)	7	5	6	4.3	21318*	-30	1
Cc1sc(NC(=O)c2ccco2)nc1-c1ccccc1	13	-1	11	20	2661	-108	-9
O=S(=O)(c1cccc(-c2nc3n(n2)Cc2ccccc2-3)c1)N1CCCC1	-7	-6	6	-0.2	6813	-17	6
Cc1cccc(NC(=S)NCCc2ccc(F)cc2)c1C	-1	14	-5	5.2	4241	-21	nt
CCOc1ccccc1NC(=O)COC(=O)C(CC)c1ccccc1 (configuration not stated)	3	0	-6	7.2	2453	-4	nt
C=CCn1c(SCC(=O)Nc2cccc(S(N)(=O)=O)c2)nnc1C1CCCCC1	-3	-1	-2	1.6	3735	0	nt
O=[N+]([O-])c1ccccc1S(=O)(=O)Nc1ccn(Cc2c(F)cccc2Cl)n1	nt	nt	nt	nt	6733	-12	7
CCN1C(=O)C2(C(C#N)=C(N)Oc3n[nH]c(COC)c32)c2ccccc21 (configuration not stated)	12	10	3	37	5158	-18	-6
Cc1nc(N2CCC(C)CC2)c2oc3ccccc3c2n1	-17	14	4	22	2315	13	0
N#Cc1ccc(OCC(=O)Nc2nc(-c3cccnc3)cs2)cc1	-8	-2	5	-1.1	3697	4	nt
CCOc1ccc(N2C(=O)c3ccccc3NC2(C)CC)cc1 (configuration not stated)	2	5	3	2.6	8173	-72	nt
N#Cc1nc(COc2ccc(Cl)cc2Cl)oc1N1CCOCC1	-3	-1	1	6.3	10949	6	4
COCCN1C(=O)c2oc3ccccc3c(=O)c2C1c1ccc(O)c(OC)c1 (configuration not stated)	-2	nt	nt	2.6	5913	-9	-8
COC(=O)Cc1cc(=O)n2[nH]c(SC)nc2n1	3	nt	nt	14	3998	-20	7
O=C(Nc1ccc2c(c1)OCO2)N1CCN(S(=O)(=O)c2ccc(Cl)cc2)CC1	1	-1	3	-2.6	11252	-18	-2
CCN(CC)C(=O)c1cc(Cl)ccc1NC(=O)c1ccco1	1	13	6	1.9	3384	-18	11
O=C(CSc1n[nH]c(Cc2ccccc2)n1)Nc1ccccc1Br	0	-8	5	5.6	3665	-10	5
N#C/C(=N/Nc1ccc([N+](=O)[O-])cc1)C(=N)N1CCCCC1	nt	nt	nt	nt	4234	-88	-7
COc1cccc(/C=N/NC(=S)NCc2ccco2)c1OC	nt	nt	nt	nt	4531	-1	10
CCOc1cccc(-c2c(C(=O)N/N=C/c3ccc(Br)cc3)nnn2-c2nonc2N)c1	nt	nt	nt	nt	4941	-11	-3
COc1ccc(Cl)cc1NC(=O)C1CCN(C(=O)Nc2ccccc2)CC1	3	6	2	2.6	3632	-9	nt
Clc1ccccc1CN1CCC(Cc2ccccc2)CC1	21	-3	9	-7.8	2516	0	-11

Screening data deposited in PubChem BioAssay by several laboratories.
